Compound activity as filed in PubChem BioAssay.
Beta apoptosis: inhibitors of cytokine-induced beta cell apoptosis, primary screen, luminescence; INS-1E cytokine-induced death, ATP luminescence, 48 h; percent of positive-control rescue, neutral wells zero; protection from apoptosis, % (concentration not given with the values); 0.8% of 300,000 active;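 active = all replicates at 75% or more, or half of them and the mean; inconclusive = half reach 75% but not the mean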;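 note: 0% = cytokine-treated negative control wells and 100% = positive control rescue; higher means more ATP so stronger rescue from cytokine killing; wells of about 40 µL received 100 nL stock; the first replicate is given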
T cruzi repl: inhibitors of intracellular T. cruzi growth, primary screen, luminescence, NIH3T3 host cells; T. cruzi beta-gal in NIH3T3, 90 h; inhibition, % (no concentration beside the values); 1.4% of 300,000 active; AID 1885, 2009;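 active = mean inhibition across valid replicates above about 55%, limit read from the data; inconclusive = mean below that limit but half or more replicates reach it; inactive = mean below it, under half of replicates reach it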;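 note: signal also drops with host cell toxicity which is not excluded here; 0% = plate median of DMSO wells and 100% = zero luminescence signal; higher percent means less beta-gal luminescence so fewer parasites; stock transfer was 50 nL into about 50 µL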
Vif A3G: inhibitors of Vif binding to APOBEC3G peptide, primary screen, biochemical, TR-FRET, GST-Vif 1-94, biotin-A3G peptide, dose response retest (AID 1117319); Virion infectivity factor (Human immunodeficiency virus type 1 group M subtype B (isolate …; 0.57% of 260,000 active; inhibition, %; hits with a dose series show IC50 in µM; TR-FRET GST-Vif / biotin-A3G peptide binding; higher % means a stronger effect; test concentration not given here; strong numbers were not always called active;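 active = above the screen mean plus three standard deviations and confirmed in dose response; inconclusive = results disagree or hit not tested in dose response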;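 note: Vif residues 1-94 fused to GST binding biotinylated APOBEC3G peptide 110-148; 0% = full assay without inhibitor and 100% = GST in place of GST-Vif; retest series ran down from 100 µM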
Ecoli rRNA inh: reduced GFP signal of wild-type E. coli, primary screen, bacterial rRNA inhibitor project, GFP/RFP fluorescence, OD600, single point | E. coli WT GFP vs humanized-ribosome RFP mutants, 24 h; hits give low values; DMSO median 0, no signal -100 | GFP signal change (wild-type ribosome), % (concentration not given with the values) | 1.6% of 350,000 active;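 active = significant combined selectivity score with lowered wild-type GFP, culture density cut under 30%, mutant RFP and density less affected; inactive = any of these conditions unmet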; note: one replicate is shown; some compounds called inactive have numbers as strong as hits
AF4-AF9 inh: inhibitors of AF4 peptide binding to AF9, primary screen, biochemical, AlphaScreen, biotin-AF4 peptide, FLAG-AF9, single point | AID 651704, 2012 | inhibition, % at 10 µM | Protein AF-9 (Homo sapiens), P42568 | 0.47% of 350,000 active;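 active = every replicate reaching a set inhibition limit, whatever the replicate mean, cut at about 25% in these data; inconclusive = mean inhibition reaches that limit but some replicates miss it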;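 note: 0% = plate neutral control median and 100% = total signal loss; the record names both 10 and 1 µM as test concentration; the first replicate is given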
Target sequence (P42568 whole entry, looked up): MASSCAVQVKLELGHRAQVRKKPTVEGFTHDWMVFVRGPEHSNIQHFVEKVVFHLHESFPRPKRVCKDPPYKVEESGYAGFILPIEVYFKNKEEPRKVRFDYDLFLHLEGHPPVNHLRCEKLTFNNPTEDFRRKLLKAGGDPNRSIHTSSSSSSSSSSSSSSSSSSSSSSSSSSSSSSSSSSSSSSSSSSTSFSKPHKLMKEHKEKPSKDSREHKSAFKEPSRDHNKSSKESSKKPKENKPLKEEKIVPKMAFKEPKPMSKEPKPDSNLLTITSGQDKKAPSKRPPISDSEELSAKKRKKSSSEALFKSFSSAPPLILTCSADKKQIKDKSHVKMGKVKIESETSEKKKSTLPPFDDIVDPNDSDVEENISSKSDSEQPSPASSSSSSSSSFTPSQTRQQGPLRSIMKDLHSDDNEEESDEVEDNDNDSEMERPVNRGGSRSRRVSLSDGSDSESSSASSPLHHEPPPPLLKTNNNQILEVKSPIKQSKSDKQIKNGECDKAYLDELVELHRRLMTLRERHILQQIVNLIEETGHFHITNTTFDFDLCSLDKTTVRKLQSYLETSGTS
Calb FLC: C. albicans growth inhibition with fluconazole, primary screen, CaCi-2 strain, Alamar Blue fluorescence. C. albicans CaCi-2 (fluconazole-resistant clinical isolate) + fluconazole, 48 h. growth inhibition, % (concentration not given with the values). 0.57% of 300,000 active. AID 1979, 2009;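 active = most replicates above 75%; inconclusive = exactly half above 75%; inactive = most below 75%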;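 note: all wells also contain fluconazole at 8 µg/ml as a sub-toxic cotreatment; 0% = median of DMSO wells and 100% = median of geldanamycin control wells; wells of about 8 µL received 7.5 nL stock; the first replicate is given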
RanGTP-Imp inh: inhibitors of RanGTP-importin-beta interaction, primary screen, biochemical, FRET, CFP-Ran, YFP-importin-beta, homogeneous; Ran GTPase (GTP-bound) - importin-beta complex; cell-free CFP-Ran/YFP-importin-beta FRET ratio; inhibition, % (test concentration not listed); 1.1% of 300,000 active; AID 2216, 2009;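 active = most replicates above 15%; inconclusive = exactly half above 15%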;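 note: 0% = DMSO wells and 100% = Ran loaded with GDP instead of GTP; wells of about 40 µL received 100 nL stock; the first replicate is given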
Bfl-1 A1 inh: caspase 3/7 activation in MEF A1-2A-BIM cells, primary screen, A1 inhibitor project, cell-based, luminescence, HTS; 0.066% of 330,000 active; caspase activation, % (no concentration beside the values); AID 2462, 2010; Caspase-Glo 3/7 luminescence, 3 h; percent of clofoctol response, vehicle zero;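 active = over half of replicate activation scores above 10%, or exactly half above 10 with the replicate mean above 10; inconclusive = replicate mean below 10 yet half the replicates above 10; inactive = over half of replicates below 10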;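 note: wells of about 30 µL received 50 nL stock; many hits fall short of the cut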
Ecoli rRNA inh OD600: also measured in Ecoli rRNA inh; calls as there; OD600 change, %; measured here: OD600 growth;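 optical density of the mix in the first replicate; 0 = DMSO median and -100 = no signal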
Ecoli rRNA inh RFP: further read-out of Ecoli rRNA inh, marked with its call; RFP signal change, %; measured here: RFP humanized mutant strains;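 first replicate; 0 = DMSO median and -100 = no signal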
Numbers without * were called inactive; ? = inconclusive; nt = no result given; & = joins results of further samples. The list is partial; rates above refer to the full screens.

canonical_smiles	AF4-AF9 inh	Beta apoptosis	Vif A3G	Ecoli rRNA inh	T cruzi repl	Bfl-1 A1 inh	Ecoli rRNA inh RFP	RanGTP-Imp inh	Ecoli rRNA inh OD600	Calb FLC
CN(C(=O)COc1cccc(Br)c1)C1CCS(=O)(=O)C1 (centres undefined)	nt	-1	2%	nt	-24	1.1	nt	-6.6	nt	-1
CCOC(=O)C1=C(C)NC(=O)CC1c1ccccc1 (centres undefined)	nt	1	20%	nt	-3	-0.6	nt	7.8	nt	4
Cc1cc(C(=O)NCCCN2CCN(c3cc(Cl)ccc3C)CC2)n(-c2ccccc2)n1	-4.9	4	-5%	13	17	-0.3	-4.5	0.4	3	-7
CCCCOc1ncnc2c1[nH]c1ccccc12	nt	61	26%	2	15	0.2	-1.6	9.0	-10	2
Cc1ccc(NC(=O)CCNC(=O)c2ccco2)cc1	nt	0	0%	nt	-9	0.3	nt	-0.3	nt	15
CCN1CCCC1CNC(=O)C(=O)NCc1ccccc1 (centres undefined)	-1.0	-3	?	20	-9	0.5	0.3	3.6	11	-1
C=CCN1CCN(C(CCC)c2nnnn2Cc2ccco2)CC1 (centres undefined)	-0.2	-6	nt	10	-10	-0.7	2.3	1.4	11	18
Cc1nonc1C(=O)N1CCCC(N2CCN(c3ccc(F)cc3)CC2)C1 (centres undefined)	3.3	-2	nt	2	-7	0.8	3.1	1.1	0	5

Brought forward from above: two compounds, followed by the next part.
canonical_smiles	AF4-AF9 inh	Beta apoptosis	Vif A3G	Ecoli rRNA inh	T cruzi repl	Bfl-1 A1 inh	Ecoli rRNA inh RFP	RanGTP-Imp inh	Ecoli rRNA inh OD600	Calb FLC
C=CCN1CCN(C(CCC)c2nnnn2Cc2ccco2)CC1 (centres undefined)	-0.2	-6	nt	10	-10	-0.7	2.3	1.4	11	18
Cc1nonc1C(=O)N1CCCC(N2CCN(c3ccc(F)cc3)CC2)C1 (centres undefined)	3.3	-2	nt	2	-7	0.8	3.1	1.1	0	5
O=C(Nc1ccc2c(c1)OCCO2)C1CCN(S(=O)(=O)c2ccc(Br)s2)CC1	nt	7	1%	nt	15	-0.2	nt	-5.4	nt	-5
Cc1ccc(NC(=O)C(C)OC(=O)Cn2cnc3ccccc3c2=O)cc1 (centres undefined)	0.3	nt	8%	8	-2	0.2	0.2	4.8	13	-2
CCOC(=O)C1CCN(S(=O)(=O)c2ccc3[nH]c(=O)oc3c2)CC1	2.2	-7	12%	0	-1	-0.3	-0.1	0.5	3	6
Cc1cc(C)c2nc(N(CCN(C)C)C(=O)/C=C/c3cccs3)sc2c1	-4.9	10	nt	-12	19	0.0	1.7	2.1	2	19
CCCN(CCC)CCN1C(=O)C2C(C(=O)Nc3ccc(C)cc3)C3C=CC2(O3)C1C(=O)NC1CCCCC1 (centres undefined)	4.6	4	nt	4	2	0.5	1.1	2.1	11	1
Cc1ccc(NC2=NCCCCC2)cc1C	nt	-7	68%	nt	-4	0.3	nt	-2.0	nt	?
Cc1c(-c2ccccc2)[n+](=O)c2c(n1[O-])CCC2	nt	6	?	nt	-4	0.9	nt	?	nt	3
CCCCC(=O)Nc1nn(CCC)c2nc3ccccc3cc12	nt	nt	-1%	nt	nt	0.0	nt	63*	nt	-5
COc1ccc(Br)c(C(=O)N2CCN(S(=O)(=O)c3cccs3)CC2)c1	2.4	-2	nt	-8	4	0.3	-7.0	1.8	-7	-5
CC(C)c1ccc(NC(=O)C(c2ccc3c(c2)OCO3)N2CCCCC2)cc1 (centres undefined)	1.5	nt	-3%	-12	14	1.3	11	0.7	-35	-13
CSc1nnc2c3ccccc3c3ccccc3c2n1	nt	nt	5%	nt	4	nt	nt	2.7	nt	28
CCc1ccccc1N1CN(Cc2ccco2)CNC1=S	0.6	-6	-11%	nt	nt	0.4	nt	0.6	nt	19
COc1ccc(Cn2c(-c3ccc(Br)cc3)c[n+]3ccccc23)cc1	2.0	58	-8%	-30*	70*	-2.9	4.2*	-0.1	-13*	28
COc1ccccc1CNC(=O)COc1ccc([N+](=O)[O-])cc1	-4.8	-3	-6%	2	-17	?	0.3	-0.6	8	5
Cc1n[nH]c(=O)c2c1nnn2Cc1ccccc1Cl	-1.4	2	-6%	4	-12	0.2	-0.4	-0.7	13	0
CCCOc1cccc(-c2nn(-c3ccccc3)cc2/C=C(\C#N)C(=O)NCCCn2ccnc2)c1	9.6	-4	-15%	-5	31	-0.3	-4.2	-5.8	1	-5
CCOC(=O)C1=C(CCc2ccccc2)NC(=O)NC1c1ccc(Br)cc1 (centres undefined)	-3.4	-1	nt	-14	15	0.0	24	-4.0	-10	-1
COc1ccccc1N(CC(=O)NC(C)(C)C)C(=O)CCC(=O)Nc1nccs1	-11	-2	nt	7	-1	-0.3	1.2	-2.7	4	5
CCOc1ccccc1NC(=O)CSc1nnc(-c2ccccc2Cl)n1Cc1ccco1	nt	3	-6%&-8%	nt	23	0.1	nt	0.5	nt	-5

12 compounds from above, ordered by length of the SMILES, smallest number first.
canonical_smiles	AF4-AF9 inh	Beta apoptosis	Vif A3G	Ecoli rRNA inh	T cruzi repl	Bfl-1 A1 inh	Ecoli rRNA inh RFP	RanGTP-Imp inh	Ecoli rRNA inh OD600	Calb FLC
Cc1ccc(NC2=NCCCCC2)cc1C	nt	-7	68%	nt	-4	0.3	nt	-2.0	nt	?
CSc1nnc2c3ccccc3c3ccccc3c2n1	nt	nt	5%	nt	4	nt	nt	2.7	nt	28
CCc1ccccc1N1CN(Cc2ccco2)CNC1=S	0.6	-6	-11%	nt	nt	0.4	nt	0.6	nt	19
Cc1n[nH]c(=O)c2c1nnn2Cc1ccccc1Cl	-1.4	2	-6%	4	-12	0.2	-0.4	-0.7	13	0
CCCCC(=O)Nc1nn(CCC)c2nc3ccccc3cc12	nt	nt	-1%	nt	nt	0.0	nt	63*	nt	-5
Cc1c(-c2ccccc2)[n+](=O)c2c(n1[O-])CCC2	nt	6	?	nt	-4	0.9	nt	?	nt	3
COc1ccccc1CNC(=O)COc1ccc([N+](=O)[O-])cc1	-4.8	-3	-6%	2	-17	?	0.3	-0.6	8	5
COc1ccc(Cn2c(-c3ccc(Br)cc3)c[n+]3ccccc23)cc1	2.0	58	-8%	-30*	70*	-2.9	4.2*	-0.1	-13*	28
CCOC(=O)C1=C(CCc2ccccc2)NC(=O)NC1c1ccc(Br)cc1 (centres undefined)	-3.4	-1	nt	-14	15	0.0	24	-4.0	-10	-1
CC(C)c1ccc(NC(=O)C(c2ccc3c(c2)OCO3)N2CCCCC2)cc1 (centres undefined)	1.5	nt	-3%	-12	14	1.3	11	0.7	-35	-13
COc1ccccc1N(CC(=O)NC(C)(C)C)C(=O)CCC(=O)Nc1nccs1	-11	-2	nt	7	-1	-0.3	1.2	-2.7	4	5
CCCOc1cccc(-c2nn(-c3ccccc3)cc2/C=C(\C#N)C(=O)NCCCn2ccnc2)c1	9.6	-4	-15%	-5	31	-0.3	-4.2	-5.8	1	-5
